KDM4E inh: inhibitors of human JMJD2E histone demethylase | B2RXH2 | JMJD2E catalytic domain, FDH-coupled NADH fluorescence (FDH is formaldehyde dehydrogenase) | Potency, µM (series often up to 57.1 µM), inactives show at the top dose activity change, negative = inhibition, usual class: inhibitors | 1.6% of 230,000 active | AID 2147; active = well fitted inhibition curve with a large enough effect, not every such curve was filed as active; inconclusive = small, poorly fitted or top-dose-only effect, or another doubt; inactive = no such curve, though single readings can be large or run the other way;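 also: 0% = wells with enzyme and -100% = buffer wells without enzyme; nearly all actives have a fitted effect of over 50% in size; many of its hits are not listed in these tables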
Target sequence (B2RXH2 1-337 limits assumed): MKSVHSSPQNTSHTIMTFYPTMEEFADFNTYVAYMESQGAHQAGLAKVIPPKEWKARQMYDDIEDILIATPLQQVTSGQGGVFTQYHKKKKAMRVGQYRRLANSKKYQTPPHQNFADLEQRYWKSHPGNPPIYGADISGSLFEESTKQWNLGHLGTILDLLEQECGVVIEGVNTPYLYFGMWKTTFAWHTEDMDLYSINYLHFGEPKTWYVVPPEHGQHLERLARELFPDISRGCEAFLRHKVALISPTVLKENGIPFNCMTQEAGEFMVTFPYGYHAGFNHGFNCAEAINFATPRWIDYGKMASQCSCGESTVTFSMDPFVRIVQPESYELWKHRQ
Epigenetic reg: epigenetic control regulation, reporter derepression | murine LDR cells, GFP reporter derepression, 30 h | Potency, µM (top dose mostly 53.9 µM), without a hit: at the top dose GFP activation, most hits filed as activators | 0.2% of 280,000 active | AID 1865; also: % of control where 0% means no effect; nearly all actives have a fitted effect of over 60% in size
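Readout is the number of GFP-expressing murine LDR cells, counted by cytometry following washing. Cells were treated with compound for 30 h at 37 C; the stably integrated CMV-GFP locus is normally silent.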
IMPase Li cell: cell-permeable IMPase inhibitors with lithium potentiation | AID 1457 | CHO-M1 cells, IP1 TR-FRET (IP-One), carbachol + lithium | Potency, µM (highest dose often 59.4 µM), for inactives: top-dose activity, negative = IMPase inhibition, actives largely listed as inhibitors | 0.35% of 210,000 active;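 also: IP1 builds up when IMPase is blocked and the TR-FRET signal falls; plate controls were basal vehicle for no effect and high inhibitor control for full effect; nearly all actives have a fitted effect of over 50% in size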
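Steps: plate 2000 CHO-M1 cells per well and culture 16–30 h; add compound and lithium; incubate 30 min, 37C; add d2-IP1 tracer and Eu cryptate anti-IP1 antibody in lysis buffer; read after 10 min at room temperature.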
RECQ1 inh: RECQ1 (human) helicase inhibition; Potency, µM (highest dose often 57.3 µM), inactives show at the highest dose activity, negative = inhibition, usual class: inhibitors; 0.54% of 240,000 active; RECQ1 DNA unwinding, red fluorescence kinetic read;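 also: plate controls were vehicle for no effect and no enzyme for full effect; nearly all actives have a fitted effect of over 30% in size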
Target sequence (P46063 whole entry, looked up): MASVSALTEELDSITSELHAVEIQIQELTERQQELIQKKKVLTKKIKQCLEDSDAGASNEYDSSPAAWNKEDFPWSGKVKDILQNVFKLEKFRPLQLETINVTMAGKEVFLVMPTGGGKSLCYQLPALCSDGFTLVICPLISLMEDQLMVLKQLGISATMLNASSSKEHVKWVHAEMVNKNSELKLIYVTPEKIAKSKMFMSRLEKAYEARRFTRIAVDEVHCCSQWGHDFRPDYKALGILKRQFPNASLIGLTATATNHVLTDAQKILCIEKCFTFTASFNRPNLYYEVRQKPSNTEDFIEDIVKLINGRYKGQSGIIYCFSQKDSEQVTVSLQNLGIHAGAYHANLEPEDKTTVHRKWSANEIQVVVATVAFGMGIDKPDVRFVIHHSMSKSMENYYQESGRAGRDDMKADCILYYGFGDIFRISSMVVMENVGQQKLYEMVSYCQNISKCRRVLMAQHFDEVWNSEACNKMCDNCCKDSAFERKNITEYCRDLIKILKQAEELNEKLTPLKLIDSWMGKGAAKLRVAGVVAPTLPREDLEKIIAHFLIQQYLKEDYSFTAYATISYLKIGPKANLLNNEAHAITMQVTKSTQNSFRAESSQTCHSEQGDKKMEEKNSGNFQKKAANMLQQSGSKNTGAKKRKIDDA
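50 nM RECQ1T1 preincubated 15 min with compound in Tris pH 8.0 buffer with MgCl2, DTT, Tween-20 and 2.5 ug/ml poly(dI-dC); started with 200 nM TAMRA/BHQ-2 forked duplex and 2 mM ATP. Unwinding read as fluorescence (525/598 nm), two reads 2 h apart.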
Luc counter: Kinase-Glo luciferase inhibition (counter-screen) | Potency, µM (top dose mostly 38.3 µM), inactives show at the highest dose activity change, negative = inhibition, usual class: inhibitors | 0.28% of 200,000 active | Q27757 | Kinase-Glo luciferase, ATP luminescence, 8 min | AID 1379; also: % is scaled to controls: 0 for no effect and ±100 for the full control effect; nearly all actives have a fitted effect of over 60% in size
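Light output from Kinase-Glo luciferase with luciferin and 10 uM ATP in 50 mM imidazole pH 7.2, KCl, MgCl2, Tween 20, BSA; compound pin-delivered, 8-min ambient incubation, then luminescence read.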
SMN2 splice enh: SMN2 splice variant enhancement; 2.8% of 210,000 active; HEK293 SMN2-luciferase splicing reporter, luminescence, 30-36 h; Potency, µM (highest dose often 46.1 µM), for inactives: at the highest dose activity change, positive = activation, usual class: activators; AID 1458; also: % of control where 0% means no effect; nearly all actives have a fitted effect of over 55% in size
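HEK293 cells carry an SMN2 minigene-luciferase reporter in which exon 7 inclusion puts luciferase in frame. Cells were seeded at 2000 cells/well, attached for 10-12 hours, then exposed to compounds for 30-36 hours at 37C before ONE-Glo luminescence.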
GoLoco inh red: inhibitors of human Gai1-RGS12 GoLoco interaction (red fluorophore); P63096; Gai1:RGS12 GoLoco peptide FP, rhodamine, 10 min; Potency, µM (top dose mostly 61.6 µM), without a hit: at the highest dose activity, negative = inhibition, hits mostly inhibitors; 0.44% of 230,000 active; active = well fitted inhibition curve with a large enough effect, not every such curve was filed as active; inactive = no such curve, though single readings can be large or run the other way; also: % is scaled to controls: 0 for no effect and ±100 for the full control effect; nearly all actives have a fitted effect of over 30% in size; many of its hits are not listed in these tables
Numbers without * were called inactive; i = inactive; ? = inconclusive; / = not tested or not shown; [ ] = dose if it differs, or a comment. Unless noted, calls follow the shape of the dose curve; as a rule, active = well fitted curve in the direction sought with a large enough effect; inconclusive = small, poorly fitted or top-dose-only effect, or another doubt; inactive = no such curve, though single readings can be large; an effect the other way counts as inactive or inconclusive. Potency is read from the fitted curve at half-maximal effect. These rows are one share of the data. The share of hits here may be higher or lower than overall.

SMILES | KDM4E inh | Epigenetic reg | IMPase Li cell | RECQ1 inh | Luc counter | SMN2 splice enh | GoLoco inh red
CCOc1ccc(-n2c(=S)sc3c(=O)[nH]c(SCC(=O)N4CCC(C)CC4)nc32)cc1 | 10% | 0.0% | 27%[38.3 µM] | -3% | -2% | -48%[inhibitor] | 27%
Cc1cc(C(=O)CSc2nn3c(=O)c(C(C)(C)C)nnc3s2)c(C)n1C1CC1 | -2% | 0.0% | 19% | -4% | -2% | -6% | 26%
CC1(C)Cc2nc3sc4c(=O)[nH]cnc4c3cc2CS1 | ? | 0.0% | 14%[38.3 µM] | 4% | 4% | ? | 10%
O=C(Cc1cccc2ccccc12)NC(NC(=S)Nc1ccccc1Cl)C(Cl)(Cl)Cl (stereo not given) | 9% | 1.3% | 2% | i | 0% | -5% | -7%
Cc1ccc(-c2cc3nc(-c4ccccc4)cc(N4CCC5(CC4)OCCO5)n3n2)cc1 | ? | -1.9% | -13% | -2% | 1% | -12% | 31%[activator]
CCOc1cc(CN2CCN(c3ccc(C(C)=O)cc3)CC2)ccc1OC | -113% | -0.4% | 2%[38.3 µM] | -3% | -1% | -35%[inhibitor] | -1%
COC(=O)CSc1nc(N2CCOCC2)c2c(c1C#N)CCCC2 | -10% | -1.1% | / | -6% | / | / | 6%
O=C(N=c1ccn(-c2nc3ccccc3nc2NS(=O)(=O)c2ccc(Cl)cc2)cc1)c1cccs1 | ? | ? | / | ? | / | / | 3%
CC(C)(C)n1nnnc1CN1CCN(C(c2ccccc2)c2ccccc2)CC1 | -3% | 1.2% | -8% | 1% | 1% | / | -2%
COc1ccc(Cl)cc1C(=O)Nc1ccccc1N1CCN(C(=O)C(C)C)CC1 | -2% | -5.1% | / | -12% | / | / | /
CCN(Cc1ccccc1)C(=O)CCc1nc(-c2ccc(C)cc2)no1 | -6% | 2.5% | 20%[38.3 µM] | -14% | -1% | -22% | 8%
CCOC(=O)c1sc(Nc2nc3ccc(OC)cc3s2)cc1C | 0% | -1.0% | 16% | 9% | 7% | -90%[inhibitor] | 2%

Complete entries, quoted from the list. Values in the order: KDM4E inh	Epigenetic reg	IMPase Li cell	RECQ1 inh	Luc counter	SMN2 splice enh	GoLoco inh red
O=C(N=c1ccn(-c2nc3ccccc3nc2NS(=O)(=O)c2ccc(Cl)cc2)cc1)c1cccs1 is listed as ?	?	/	?	/	/	3%
CC(C)(C)n1nnnc1CN1CCN(C(c2ccccc2)c2ccccc2)CC1 is listed as -3%	1.2%	-8%	1%	1%	/	-2%
O=C(Cc1cccc2ccccc12)NC(NC(=S)Nc1ccccc1Cl)C(Cl)(Cl)Cl (stereo not given) is listed as 9%	1.3%	2%	i	0%	-5%	-7%
Cc1ccc(-c2cc3nc(-c4ccccc4)cc(N4CCC5(CC4)OCCO5)n3n2)cc1 is listed as ?	-1.9%	-13%	-2%	1%	-12%	31%[activator]
COc1ccc(Cl)cc1C(=O)Nc1ccccc1N1CCN(C(=O)C(C)C)CC1 is listed as -2%	-5.1%	/	-12%	/	/	/

Following part
SMILES | KDM4E inh | Epigenetic reg | IMPase Li cell | RECQ1 inh | Luc counter | SMN2 splice enh | GoLoco inh red
c1ccc2c(NC3C4CC5CC(C4)CC3C5)nc(N3CCOCC3)nc2c1 (stereo not given) | ? | -1.9% | 15% | ? | 4% | -11% | 4%
CCCC(=O)NC(=S)Nc1cccc(Cl)c1N1CCCCC1 | 5% | -1.0% | 23%[38.3 µM] | -19% | -1% | -20% | 4%
O=S(=O)(NC1CCCCCC1)c1cccc2cccnc12 | 7% | -1.7% | -10%[38.3 µM] | -4% | -5% | -2% | 8%
CC(c1ccco1)N(C(=O)C12CC3(C)CC(C)(CC(C)(C3)C1)C2)c1ccccn1 (stereo not given) | -4% | -1.0% | 35%[activator][38.3 µM] | i | 19% | -15% | 8%
O=c1c2cc(-c3ccccc3)sc2ncn1/N=C/c1ccco1 | 0% | 1.2% | -1%[38.3 µM] | -3% | -3% | 10% | 12%
CCOc1cccc(C(=O)Nc2cccc(C(C)=O)c2)c1 | 2% | 0.9% | -5% | i | -1% | ? | 1%
CCC(C)(C)n1nnnc1C(c1cc2cccc(C)c2[nH]c1=O)N1CCN(C(=O)c2ccco2)CC1 (stereo not given) | ? | 2.5% | -19%[38.3 µM] | -1% | 2% | -39% | -14%
CN(C)CC(C)(C)NS(=O)(=O)c1ccc(Cl)cc1 | -2% | 0.0% | 6%[38.3 µM] | 1% | 1% | -5% | -6%
COc1ccc(-c2c3c(nc4sc5c(Cl)nc(C)nc5c24)CCC3)cc1 | 6% | 6.4% | 27%[38.3 µM] | -2% | 1% | -3% | 10%
CC(=O)c1cccc(N(C(=O)c2ccccn2)C(C(=O)NC2CCCCC2)c2cccs2)c1 (stereo not given) | 10% | 3.0% | 17%[38.3 µM] | -9% | 2% | -1% | 9%
Cc1nn(Cc2ccc(Cl)cc2Cl)c(C)c1NC(=O)NC12CC3CC(CC(C3)C1)C2 | -4% | 1.0% | 25%[38.3 µM] | -15% | 18% | -33%[inhibitor] | -4%
CC(C)NC(=O)c1sc2nc(-c3cccs3)cc(-c3cccs3)c2c1N | -6% | 0.8% | 6%[38.3 µM] | 14% | 19% | -12% | 12%
CC(=O)CCC1C2C(O)C(C(C)C)C(OC(=O)/C=C/c3ccccc3)CC12C (stereo not given) | -6% | 1.0% | / | -14% | / | / | 4%
O=C(NC1CCCCC1)C(c1ccco1)N(CCc1ccccc1)C(=O)C(F)(F)F (stereo not given) | -1% | -1.2% | 29% | -15% | -1% | -20% | -1%
Cc1cccc(OCC(=O)Nc2ccccc2N2CCN(C(=O)C(C)C)CC2)c1C | 4% | 6.5% | 24%[38.3 µM] | -6% | -3% | -5% | 1%
CCOC(=O)C1CCN(c2nc3ccccc3nc2C(C#N)C(=O)OCCOC)CC1 (stereo not given) | -9% | 1.0% | 29%[38.3 µM] | -12% | 0% | 3% | 20%
CC(=O)NC(CSc1cc(C)nc2ccc(Br)cc12)C(=O)O (stereo not given) | 5% | 1.1% | / | -1% | / | / | 2%
Cc1c(N=C2N=C(NC(=O)c3ccc(F)cc3)c3ccccc32)c(=O)n(-c2ccccc2)n1C | 9% | 9.1% | 16% | i | -3% | -15% | 26%
CC1(C)Cc2c(C#N)c(NC3CCCCC3)nc(-c3ccco3)c2CO1 | ? | -1.0% | -3%[38.3 µM] | -13% | -1% | -7% | 3%
COC(=O)NNC(=O)c1ccc(C(C)(C)C)cc1 | 6% | -2.2% | -9% | 3% | -3% | 9% | 3%
COc1cc(/C=N/N=C(/N)c2nonc2N)cc(Br)c1OCc1ccccc1C | 10% | 0.8% | 44%[activator][38.3 µM] | i | -3% | -23% | 11%
CCOC(=O)c1nn(-c2ccc(F)cc2)c(-c2ccccc2)c1C(=O)c1ccccc1 | 6% | 0.0% | 15%[38.3 µM] | 7% | 0% | -13% | -6%
Cc1ccc(NC(=S)N(Cc2cccc(Br)c2)CC2CCC(C(=O)O)CC2)cc1Cl (stereo not given) | 6% | -2.0% | -2% | i | -2% | -37%[inhibitor] | -9%
O=c1[nH]c(SCC2CCCCO2)nc2ccccc12 (stereo not given) | -15% | 2.3% | -4%[38.3 µM] | -12% | -7% | 22% | 11%
CCS(=O)(=O)Nc1ccc(C2=NN(C(=O)c3ccco3)C(c3ccc(C)cc3)C2)cc1 (stereo not given) | ? | 0.1% | 13%[38.3 µM] | -9% | 4% | 4% | 3%
O=C(N=c1ccn(-c2nc3ccccc3nc2NS(=O)(=O)c2ccccc2)cc1)c1cccs1 | -27% | ? | ? | -4% | -7% | -1% | 11%
Cc1cc(NS(=O)(=O)c2ccc(NC(=S)NC(=O)c3ccc(C(C)(C)C)cc3)cc2)no1 | -6% | 2.6% | 13% | -4% | -7% | 0% | 5%
COCCNC(=S)N/N=C(\C)c1cccc(C(F)(F)F)c1 | 0% | -3.5% | 4% | -2% | 1% | -8% | 14%
COc1ccc(/C=C/C(=O)NC(=S)Nc2ccc(S(=O)(=O)Nc3nccnc3OC)cc2)cc1 | -4% | -1.1% | -7% | -3% | 1% | 4% | 6%
Cc1ccc(S(=O)(=O)Nc2nc3ccccc3nc2NCc2ccco2)cc1C | ? | -1.1% | -32%[38.3 µM] | -4% | -7% | -28% | 6%
CCCCC(=O)OCC(=O)Nc1cccc(S(=O)(=O)NC2=NCCCCC2)c1 | 7% | -1.5% | 0% | -1% | -2% | 12% | 6%
CC(C)(C)c1ccc(Cn2nnc3c(=O)[nH]c(C4CCN(C(=O)Cc5cccs5)CC4)nc32)cc1 | 2% | -0.7% | 3%[38.3 µM] | -9% | 1% | -37% | 3%
Cn1c(Sc2ccc(Cl)cc2)c(C=O)c2ccccc21 | -2% | 0.9% | -15% | -4% | 6% | -70%[inhibitor] | -1%
Cc1ccc(N2C(=O)CS/C2=N\C(=S)Nc2ccccc2)cc1 | 1% | ? | / | i | / | / | -6%
CCOC(=O)N1CCC(NC(=O)C(Cc2ccccc2)NC(=O)c2ccco2)CC1 (stereo not given) | 0% | -0.8% | 12%[38.3 µM] | -3% | 0% | -12% | 0%
C=C(C)CNC(=S)N/N=C/c1ccco1 | -13% | ? | / | i | / | / | 6%
Cc1ccc(S(=O)(=O)NCC(c2ccccc2)N2CCN(CCC#N)CC2)cc1 (stereo not given) | 1% | -2.0% | 20%[38.3 µM] | 0% | 3% | -3% | 6%
CCOc1cc2c3c(c1)C1(Nc4ccccc4S1)C(=O)N3C(C)(C)CC2C (stereo not given) | 0% | -4.1% | 31%[activator][38.3 µM] | -18% | -1% | 2% | -6%
CCOC(=O)C1CCN(c2c(C(=O)c3ccccc3)cnc3ccc(CC)cc23)CC1 | -14% | -8.3% | 18% | 2% | -3% | / | 2%
Cc1sc2nc(CN(C(=O)NC3CCCCC3)C3CCCCC3)[nH]c(=O)c2c1C | 7% | 1.2% | 6% | 3% | 9% | -18% | -1%

Screening results: PubChem BioAssay, National Center for Advancing Translational Sciences (NCATS)
